Assay outcomes from PubChem.
NS1 inh – qHTS Assay for Inhibitors of Influenza NS1 Protein Function. S. cerevisiae slowed by influenza A NS1, growth recovery by OD600. Potency, µM (highest dose often 46.1 µM), inactives show at the highest dose activity, positive = more growth. hit rate 0.4% among 270,000. AID 2326, 2010; active means well fitted rising curve with a large enough effect; inconclusive means small, poorly fitted or top-dose-only effect; inactive means no such curve, though single readings can be large or run the other way; further: nearly all actives have a fitted effect of over 50% in size
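Compounds were scored for reversing the slow growth caused by influenza A NS1 in S. cerevisiae, measured by optical density at 600 nm. Assay medium contained 2% galactose at pH 6.0; NS1-free yeast of the same strain were the positive control.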
2A StopGo – High Throughput Screening for Foot and Mouth Disease Virus Antivirals; human cells with a luciferase reporter of 2A StopGo recoding; control for the full effect not named in the record; hit rate 1.2% among 410,000; Potency, µM (titrated, usually from 57.9 µM), for the others: top-dose signal change, negative = less light; active = well fitted falling curve with a large enough effect; inconclusive = small, poorly fitted or top-dose-only effect; inactive = no such curve, though single readings can be large or run the other way; tested in HEK293T cells; further: on the % scale 0 is the no-effect control and ±100 the full control effect; nearly all actives have a fitted effect of over 45% in size; luciferase light after 4 h
Cruzain Triton – qHTS Assay for Promiscuous and Specific Inhibitors of Cruzain (with detergent); purified cruzain, Z-FR-AMC fluorescence, 0.01% Triton; Potency, µM, without a hit: max response, negative = inhibition, actives largely listed as inhibitors; hit rate 0.43% among 200,000; AID 1478, 2009;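 further: plate controls were neutral wells for no effect and buffer without enzyme for full effect; nearly all actives have a fitted effect of over 40% in size; top concentration of the series not given in the record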
Target sequence (P25779 123-467 limits assumed): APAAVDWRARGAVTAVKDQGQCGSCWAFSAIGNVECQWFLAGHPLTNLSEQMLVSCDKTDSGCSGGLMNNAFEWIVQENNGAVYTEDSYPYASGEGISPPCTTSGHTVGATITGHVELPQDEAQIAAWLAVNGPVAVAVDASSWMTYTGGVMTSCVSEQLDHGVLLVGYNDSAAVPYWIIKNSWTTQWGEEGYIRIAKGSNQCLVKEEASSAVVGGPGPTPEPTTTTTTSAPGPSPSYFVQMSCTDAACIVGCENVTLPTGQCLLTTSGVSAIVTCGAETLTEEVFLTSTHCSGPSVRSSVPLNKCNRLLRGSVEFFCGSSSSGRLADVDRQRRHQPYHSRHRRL
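Detergent-containing arm of a paired screen for aggregation-based inhibition: 0.01% Triton X-100 present. Cruzain at 1.5 nM cleaved 2 uM Z-FR-AMC at pH 5.5 with 5 mM DTT; AMC fluorescence gain over 60 s measured activity.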
MARV entry inh – qHTS for inhibitors of binding or entry into cells for Marburg Virus; Marburg virus pseudotyped entry inhibition, cell reporter; control for the full effect not named in the record; about a third of the inactives were read at about 46 µM; Potency, µM (series often up to 37.8 µM), for the others: at the highest dose activity change, negative = inhibition, usual class: inhibitors; hit rate 1.8% among 300,000; active = well fitted inhibition curve with a large enough effect; inconclusive = small, poorly fitted or top-dose-only effect, or effect the other way; inactive = flat fitted curve, though single readings scatter; tested in HEK293 cells; about a fifth of its hits are not listed in these tables; further: on the % scale 0 is the no-effect control and ±100 the full control effect; luciferase read-out
Lassa entry inh – qHTS for Inhibitors of binding or entry into cells for Lassa Virus; hit rate 1.2% among 300,000; Lassa virus pseudotype entry inhibition, cell reporter; control for the full effect not named in the record; Potency, µM (doses to about 37.9 µM), for inactives: top-dose activity change, negative = inhibition, actives largely listed as inhibitors; active means well fitted inhibition curve with a large enough effect; inconclusive means small, poorly fitted or top-dose-only effect, or effect the other way; inactive means flat fitted curve, though single readings scatter; tested in HEK293 cells; further: on the % scale 0 is the no-effect control and ±100 the full control effect; nearly all actives have a fitted effect of over 50% in size; luciferase read-out
Cruzain inh noDet – qHTS Assay for Promiscuous and Specific Inhibitors of Cruzain (without detergent). Cruzipain (Trypanosoma cruzi), P25779. purified cruzain, Z-FR-AMC fluorescence, no detergent. Potency, µM, inactives show max response, negative = inhibition, hits mostly inhibitors. hit rate 2.3% among 200,000. AID 1476, 2009;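 further: plate controls were enzyme without inhibitor for no effect and buffer without enzyme for full effect; nearly all actives have a fitted effect of over 40% in size; top concentration of the series not given in the record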
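Detergent-free condition (0.00005% Triton X-100) in acetate buffer pH 5.5 with DTT. 1.5 nM enzyme and compound were pre-mixed 15 min, then 2 uM Z-FR-AMC substrate added; reaction progress from fluorescence change between first and third reads (60 s).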
RE007 growth inh – qHTS Assay for Inhibitors of the HIV-1 protein Vpr; hit rate 0.21% among 360,000; S. pombe RE007 Vpr strain, BacTiter-Glo ATP luminescence, 24 h; control for the full effect not named in the record; Potency, µM (highest dose often 92.2 µM), for the others: top-dose activity change, negative = less growth; AID 651644, 2012; active = well fitted falling curve with a large enough effect; inconclusive = small, poorly fitted or top-dose-only effect; inactive = no such curve, though single readings can be large or run the other way;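 further: on the % scale 0 is the no-effect control and ±100 the full control effect; nearly all actives have a fitted effect of over 50% in size; the assay follows cell death caused by Vpr and the record does not say whether a fall means rescue or toxicity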
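Fission yeast RE007 carrying one integrated HIV-1 vpr copy, seeded at OD 0.01 in PMG+AL medium with 23 nL pinned compound. Grown 24 h at 30 degrees; viability read by BacTiter-Glo luminescence after 5 min.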
SARS PLP yeast – qHTS of Yeast-based Assay for SARS-CoV PLP; Potency, µM (top dose mostly 32.9 µM), inactives show top-dose activity, positive = growth rescue; S. cerevisiae expressing SARS-CoV PLpro, growth rescue; control for the full effect not named in the record; hit rate 0.19% among 330,000; active means well fitted rising curve with a large enough effect; inconclusive means small, poorly fitted or top-dose-only effect; inactive means no such curve, though single readings can be large or run the other way; further: 0% is about no effect; nearly all actives have a fitted effect of over 55% in size; growth read by luminescence after 48 h
* hit, by the source's call; ? = inconclusive; . = no result given; [ ] = dose if it differs, or a comment. Unless noted, the call rests on the fitted dose curve; in most records, active means well fitted curve in the direction sought with a large enough effect; inconclusive means small, poorly fitted or top-dose-only effect, or another doubt; inactive means no such curve, though single readings can be large; an effect the other way counts as inactive or inconclusive. Potency means the concentration at half of the fitted maximal effect.

Under each structure: 2A StopGo, MARV entry inh, Cruzain Triton, RE007 growth inh, SARS PLP yeast, NS1 inh, Lassa entry inh, Cruzain inh noDet
COC(=O)c1ccccc1NC(=O)CSCC(=O)Nc1ccccc1OC
 : 0%, ?, -6.6%, -8%, 0%, -4%, 1%, 3%
CCCc1cnc(N2CCN(C(=O)c3c(-c4ccccc4)noc3C)CC2)nc1
 : -13%, ?, ., -1%, 0%, -1%, ?, .
Cc1cccc(-c2noc(-c3ccc(NCc4ccco4)c([N+](=O)[O-])c3)n2)c1
 : 31%[activator], 25%[46.1 µM], -3.6%, ., ., ., -2%[46.1 µM], ?
Cc1sc2ncn(CC(=O)Nc3c(F)cccc3F)c(=O)c2c1S(=O)(=O)N1CCC(C)CC1
 : 10%, -25%[46.1 µM], ., -1%, -1%, ., -3%, .
CN(C)S(=O)(=O)c1ccc(Cl)c(NC(=O)COC(=O)/C=C/c2ccc3ccccc3n2)c1
 : -23%, 2%, ., 4%, 3%, ., 13%, .
CCOC(=O)Cc1csc(NC(=O)CCN2C(=O)c3cccc([N+](=O)[O-])c3C2=O)n1
 : 9%, 15%[46.1 µM], ., -10%, 2%, 4%, ., .
O=c1[nH]c2ccc(S(=O)(=O)N3CCC(Cc4ccccc4)CC3)cc2o1
 : -26%, -4%, -5.8%, 13%, 0%, -4%, 23%, 13%
CCC1CC(CSC(=N)N)OC1=O (stereo not drawn)
 : -30%, -51%, ., 7%, 1%, 6%, -14%, .
O=C(N/N=C/c1ccc(O)cc1)c1ccc(COc2cc(Cl)ccc2Cl)o1
 : -11%, ?, -7.8%, 17%, -4%, -5%, ?, ?
CCc1nc2scc(-c3ccc(C)cc3)c2c(=O)n1N
 : -2%, -3%, -6.3%, 2%, -18%, -17%, 14%, 2%
c1ccc(-c2nn3c(Cn4nnc5ccccc54)nnc3s2)nc1
 : 1%, 19%, -1.9%, -12%, -4%, ?, 6%, -10%
O=C(Nc1ccn(Cc2c(F)c(F)cc(F)c2F)n1)c1ccc(COc2ccccc2Cl)cc1
 : -16%, ?, 2.3%, 8%, 2%, 21%, ?, ?
COc1cc(-n2c(C)nc3cc(C(=O)NCC4CCCO4)ccc32)cc(OC)c1OC (stereo not drawn)
 : -6%, ., ., 8%, 9%, 0%, ., .
CN(C)S(=O)(=O)N1CCN(S(=O)(=O)c2ccc(F)cc2)CC1
 : 0%, 16%, 7.5%, 17%, 2%, 3%, -21%, 7%
COc1ccc(OCCN(C)CC(=O)Nc2c(C)cccc2C)cc1
 : -12%, 18%, ., -3%, 0%, 0%, 2%, .
CCc1ccc2oc(C(=O)Nc3nonc3C)c(C)c2c1
 : -35%, ., ., -14%, -4%, -15%, ., .
CC1CCC2(CC1)NC(=O)N(CC(=O)N1c3ccccc3CC1C)C2=O (stereo not drawn)
 : -18%, 15%, ., -10%, 5%, ., -2%, .
CC(C)Sc1n[nH]c(=O)n1-c1cccc(C(F)(F)F)c1
 : -12%, ., ., 14%, 1%, 0%, ., .
CCOc1ccc(C(=O)Nc2cc(-c3ccccc3)no2)cc1
 : 3%, ?, -2.4%, ., ., ., 27%[46.1 µM], 20µM*
O=C(N/N=C/c1ccccc1)C1CCCN1C(=O)c1cc([N+](=O)[O-])cc([N+](=O)[O-])c1 (stereo not drawn)
 : -13%, ., ., -17%, -1%, 12%, ., .
Cc1ccc(NC(=O)c2ccn(C)n2)c(Br)c1
 : 3%, ?, -7.0%, -21%, 30%, -2%, ?, 13%
COc1ccccc1NC(=O)COc1ccc(Br)cc1CNC1CCCC1
 : -27%, 5.6µM*, ., -26%, 1%, 5%, ., .
COc1ccc(S(=O)(=O)N2CCCc3ccccc32)cc1[N+](=O)[O-]
 : -19%, ., ., 15%, -1%, -2%, ., .
CCOc1cccc(C2c3c(oc4cc(C)c(C)cc4c3=O)C(=O)N2CCCN(C)C)c1 (stereo not drawn)
 : ., ., -5.3%, ., 2%, -7%, ., -17%
CC(=O)Nc1ccc(-c2nc(C)c(C(C)=O)n2O)cc1
 : ., 13%, -7.7%, -11%, -9%, 3%, ?, 1%
COC(=O)CCSc1cc(NCCOC(C)=O)c([N+](=O)[O-])c2nonc12
 : 35µM*, ?, -17%, -2%, 0%, -13%, 2%, -15%
O=C(Nc1ccc(F)cc1)[C@H](Cc1ccccc1)N1Cc2ccccc2C1=O
 : -6%, -27%[46.1 µM], 1.2%, ., ., ., -9%[46.1 µM], 7%
COc1ccc2cc(C)c3nnc(SCC(=O)Nc4cc(OC)c(OC)cc4C(=O)O)n3c2c1
 : -2%, 8%[46.1 µM], ., 2%, -1%, ., 3%[46.1 µM], .
CCC(CC)NC(=O)CO/N=C/c1ccccc1OC(F)F
 : 0%, 31%, -0.4%, -7%, 2%, -4%, ?, 12%
COc1cccc(CN2CC(C(=O)NCc3cccc(N4CCCC4)c3)CCC2=O)c1 (stereo not drawn)
 : 6%, 2%[46.1 µM], ., -4%, 15%, 19%, 13%[46.1 µM], .
COc1ccc(NC(=O)c2oc3ccccc3c2NC(=O)c2ccc(OC)c(OC)c2)c(OC)c1
 : -15%, 6%[46.1 µM], ., -2%, ., -8%, 6%, .
CC(C)=CCC(C)(C)C1OCCN1C(=O)c1ccccc1 (stereo not drawn)
 : -20%, ?, 0.8%, -12%, -5%, -16%, -3%, -4%
C=CCN1C(=O)C(Cc2ccccc2)S/C1=N/N=C/c1cccs1 (stereo not drawn)
 : -8%, 0%, -7.9%, -1%, 0%, 20%, ?, -6%
CC(C)NC1=C(Cl)C(=O)c2ccccc2C1=O
 : -1%, -1%, -6.3%, ?, 24%, -85%, 9%, -18%
CCCCN(CCCC)S(=O)(=O)c1c(C)[nH]c(=O)[nH]c1=O
 : -12%, -1%[46.1 µM], ., 11%, -2%, ., -4%, .

A run of entries from further up, as a working copy:
Under each structure: 2A StopGo, MARV entry inh, Cruzain Triton, RE007 growth inh, SARS PLP yeast, NS1 inh, Lassa entry inh, Cruzain inh noDet
COc1ccc(S(=O)(=O)N2CCCc3ccccc32)cc1[N+](=O)[O-]
 : -19%, ., ., 15%, -1%, -2%, ., .
CCOc1cccc(C2c3c(oc4cc(C)c(C)cc4c3=O)C(=O)N2CCCN(C)C)c1 (stereo not drawn)
 : ., ., -5.3%, ., 2%, -7%, ., -17%
CC(=O)Nc1ccc(-c2nc(C)c(C(C)=O)n2O)cc1
 : ., 13%, -7.7%, -11%, -9%, 3%, ?, 1%
COC(=O)CCSc1cc(NCCOC(C)=O)c([N+](=O)[O-])c2nonc12
 : 35µM*, ?, -17%, -2%, 0%, -13%, 2%, -15%
O=C(Nc1ccc(F)cc1)[C@H](Cc1ccccc1)N1Cc2ccccc2C1=O
 : -6%, -27%[46.1 µM], 1.2%, ., ., ., -9%[46.1 µM], 7%
COc1ccc2cc(C)c3nnc(SCC(=O)Nc4cc(OC)c(OC)cc4C(=O)O)n3c2c1
 : -2%, 8%[46.1 µM], ., 2%, -1%, ., 3%[46.1 µM], .
CCC(CC)NC(=O)CO/N=C/c1ccccc1OC(F)F
 : 0%, 31%, -0.4%, -7%, 2%, -4%, ?, 12%
COc1cccc(CN2CC(C(=O)NCc3cccc(N4CCCC4)c3)CCC2=O)c1 (stereo not drawn)
 : 6%, 2%[46.1 µM], ., -4%, 15%, 19%, 13%[46.1 µM], .
COc1ccc(NC(=O)c2oc3ccccc3c2NC(=O)c2ccc(OC)c(OC)c2)c(OC)c1
 : -15%, 6%[46.1 µM], ., -2%, ., -8%, 6%, .
CC(C)=CCC(C)(C)C1OCCN1C(=O)c1ccccc1 (stereo not drawn)
 : -20%, ?, 0.8%, -12%, -5%, -16%, -3%, -4%
C=CCN1C(=O)C(Cc2ccccc2)S/C1=N/N=C/c1cccs1 (stereo not drawn)
 : -8%, 0%, -7.9%, -1%, 0%, 20%, ?, -6%
